# Screens as filed in PubChem.
# ClpP mod – qHTS Assay for Activators of ClpP; ATP-dependent Clp protease proteolytic subunit (Bacillus subtilis (strain 168)), P80244; purified B. subtilis ClpP, FRET peptide cleavage, 20 min; Potency, µM (titrated, usually from 57.5 µM), without a hit: at the top dose activity change, negative = active; 340,000 tested, 1.9% active; active = well fitted falling curve with a large enough effect; inconclusive = small, poorly fitted or top-dose-only effect; inactive = no such curve, though single readings can be large or run the other way; also: the source files actives as falling curves though it sought activators and does not explain the sign; nearly all actives have a fitted effect of over 65% in size; many hits overshoot -100%
# Target sequence (P80244 whole entry, looked up): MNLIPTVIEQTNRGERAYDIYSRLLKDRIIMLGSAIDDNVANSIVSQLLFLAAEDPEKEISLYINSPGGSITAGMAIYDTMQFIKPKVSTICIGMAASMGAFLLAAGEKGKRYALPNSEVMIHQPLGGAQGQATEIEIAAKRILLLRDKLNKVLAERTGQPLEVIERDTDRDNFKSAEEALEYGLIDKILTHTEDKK
#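 FRET quenching reversal measured ClpP activation: 10 microg/mL B. subtilis ClpP at pH 8 with the FRET-FV decapeptide, read at 430 nm after 320 nm excitation. The 20-min minus 0-min signal was scaled between DMSO/no-enzyme wells and ADEP (5.8 microM final).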
# gsp antagonist – antagonists of gsp mutant (McCune-Albright syndrome); AID 624288; 340,000 tested, 0.4% active; gsp-mutant cells, cAMP HTRF, 30 min; control for the full effect not named in the record; Potency, µM (top dose mostly 76.9 µM), for inactives: top-dose activity change, negative = inhibition, most hits filed as inhibitors; active = falling curve of any shape with a large fitted effect; inconclusive = falling curve, mostly with a smaller effect; inactive = flat or rising curve; cell line not stated here;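 also: intracellular cAMP measured with PDE inhibitor Ro 20-1724 present during compound exposure; % is scaled to controls: 0 for no effect and ±100 for the full control effect; nearly all actives have a fitted effect of over 65% in size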
#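 HTRF cAMP read-out (cAMP-d2 plus anti-cAMP antibody-K in lysis buffer, 30 min RT). Before lysis, cells are exposed to compounds with […] for 30 min at 37C in DPBS containing Ca/Mg, BSA and Tween 20.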
# The depositor's hits bear a star; ? = inconclusive. Potency is read from the fitted curve at half-maximal effect. These rows are one share of the data (hit frequency here may not be typical).
SMILES,ClpP mod,gsp antagonist
CC(C)N(C(=O)[C@H]1C[C@H](CC(=O)NCCc2ccccn2)C(=O)N2CCc3c([nH]c4cc(CCC(=O)N(C)C)ccc34)[C@]12C)C(C)C,-4.5%,2%
Cc1ccc(S(=O)(=O)N2C[C@@H]3CCCC[C@@H]3[C@@H](C)[C@H]2c2cn(Cc3ccccc3)c3ccc(F)cc23)cc1,-0.4%,2%
CN(Cc1ccccc1)C(=O)c1cccc(NC(=O)Cc2cccc(NC(=O)C3CCN(C(=O)C4CCC4)CC3)c2)c1,1.6%,-4%
C[C@]12c3[nH]c4ccc(Cl)cc4c3CCN1C(=O)[C@@H](CC(=O)NCc1ccco1)C[C@@H]2C(=O)N1CCOCC1,1.1%,8%
O=C1N[C@@H](Cc2c[nH]c3ccccc23)COC(=O)[C@@H](Cc2ccc(F)cc2)CC/C=C/C[C@@H]1CC(=O)N(CCO)Cc1ccccc1,-2.2%,?
COc1ccc(CN(CC(O)COCc2ccccc2)S(=O)(=O)c2ccccc2Br)cc1 (centres undefined),-6.1%,-20%
CN(CCc1ccccc1)C(=O)c1cccc(NC(=O)Cc2cccc(NC(=O)C3CCCN(C(=O)C4CC4)C3)c2)c1 (centres undefined),2.3%,6%
O=C(C[C@@H]1C/C=C\C[C@H](Cc2ccc(F)cc2)C(=O)OC[C@H]2CCCN2C1=O)NCCO,-0.2%,8%
CC(C)=CCC/C(C)=C/CNC(=O)CC1C[C@H](C(=O)N(C(C)C)C(C)C)[C@@]2(C)c3[nH]c4ccccc4c3CCN2C1=O (some centres undefined),0.9%,6%
C[C@H]1CN([C@@H](C)CO)C(=O)c2cccc(NC(=O)C3CC3)c2O[C@H]1CN(C)S(=O)(=O)c1cccs1,-0.8%,3%
CCOC(=O)CC[C@H](NC(=O)Cn1cnc2c(NCc3ccccc3)ncnc21)C(=O)OCC,-0.8%,5%
O=C(N[C@@H]1c2ccccc2CC[C@@H]1OCc1ccccc1)c1ccc(-c2ccccc2)cc1,-4.6%,17%
COc1cccc([C@@H]2CC=C(C(=O)O)[C@H](c3ccc(C)cc3)N2S(=O)(=O)c2ccc(C)cc2)c1,0.2%,-22%
C[C@@H]1CN(S(=O)C(C)(C)C)[C@@H](CCO)/C1=C\c1ccccc1 (some centres undefined),0.4%,3%
COCCCNC(=O)CC1C[C@H](C(=O)N2CCOCC2)[C@@]2(C)c3[nH]c4ccccc4c3CCN2C1=O (some centres undefined),-3.1%,11%
COc1ccc(-c2ccc3c(c2)C2CC3CCN2)cc1 (centres undefined),1.4%,-3%
COCC(=O)N1C[C@H]2CON(C)[C@H]2C[C@H]1c1cccc(-c2ccc(C#N)cc2)c1,0.8%,11%
CC(C)N(C(=O)[C@H]1CC(CC(=O)NCc2cccc(C(F)(F)F)c2)C(=O)N2CCc3c([nH]c4ccccc34)[C@]12C)C(C)C (some centres undefined),1.3%,-17%
CCC[C@@H](CN1CCC[C@H]1CN1C(N)=NC[C@H]1CC(C)C)N1C[C@@H]([C@H](C)CC)N(CCCC2CCCC2)C1=N,0.3%,7%
Cc1noc(C)c1NC(=O)N(C)C[C@H]1Oc2ccc(NC(=O)Cn3cnnn3)cc2C(=O)N([C@H](C)CO)C[C@@H]1C,-0.8%,8%
C[C@@H]1CN[C@H](CCO)/C1=C\c1ccccc1,-2.0%,8%
O=C(C[C@H]1C[C@H](C(=O)N2CCOCC2)[C@@]2(CCC3CCCC3)c3[nH]c4ccc(Cl)cc4c3CCN2C1=O)NCCN1CCOCC1,0.1%,12%
CC(C)(C)OC(=O)C[C@H]1C/C=C\C[C@H](CC(=O)N[C@H](CO)Cc2ccccc2)C(=O)N2CCC[C@H]2COC1=O,-1.8%,3%
COCC(=O)N(C)[C@H]1C[C@H]2c3cc(Oc4ccccc4C)ccc3CCN2C(=O)[C@H]1[C@H](C)O,0.7%,-3%
CC[C@]12c3[nH]c4ccccc4c3CCN1C(=O)C(CC(=O)NCCCOC)C[C@@H]2C(=O)N1CCN(C(=O)C2CC2)CC1 (some centres undefined),1.4%,12%

# Remaining list, next part
SMILES,ClpP mod,gsp antagonist
O=[N+]([O-])c1ccc(COc2ccc(CN3CCCC3)cc2)cc1,3.0%,4%
CCOC(=O)C1=CNS(=O)(=O)NC1c1ccccc1 (centres undefined),-22%,-4%
CC(C)(C)S(=O)(=O)N1Cc2cc(CO)cc(CCO)c2[C@H]1CCO,-0.2%,7%
O=C(NCc1ccccc1)c1ccc(NC(=O)C2CCCCC2)cc1,-0.8%,12%
O=S(=O)(NCCc1ccc(F)cc1)c1cc(C(F)(F)F)ccc1Br,1.6%,-4%
Cc1ccc([C@H]2C(C(=O)O)=CC[C@@H](c3ccc(Cl)cc3)N2S(=O)(=O)c2ccc(C)cc2)cc1,1.3%,?
CCCCN1CC(COCc2ccccc2)Oc2cc(Br)ccc2S1(=O)=O (centres undefined),-1.4%,-10%
COc1ccc(C2=Nc3ccccc3C2(O)CCN2C(=O)c3ccccc3C2=O)cc1 (centres undefined),-9.7%,-8%
C[C@H](CO)N1C[C@H](C)[C@H](CN(C)CC2CC2)Oc2ccc(NC(=O)CCN3CCOCC3)cc2C1=O,-4.3%,12%
C=CC[C@@H](CC(=O)N[C@@H](CO)Cc1ccccc1)C(=O)N[C@@H](COC(=O)[C@@H](CC=C)Cc1ccc(F)cc1)Cc1c[nH]c2ccccc12,4.1%,-6%
C[C@]12c3[nH]c4cc(-c5ccco5)ccc4c3CCN1C(=O)[C@@H](CC(=O)NCCC1=CCCCC1)C[C@@H]2C(=O)N1CCOCC1,4.7%,-23%
Cc1cccc(N2O[C@H]3C=CC2CCCC3)n1,-1.3%,6%
CN(C)C(=O)CCc1ccc2c3c([nH]c2c1)[C@]1(CCC2CCCC2)[C@@H](C(=O)N2CCOCC2)C[C@H](CC(=O)NCC24CC5CC(CC(C5)C2)C4)C(=O)N1CC3,1.2%,?
COc1ccc2c(-c3ccc(OCCN4CCCCC4)cc3)c(-c3ccccc3OC)sc2c1,5.3%,8%
COc1cc(OC)c2c(-c3cccc(-c4ccc(OC)c(OC)c4)c3)cc(=O)oc2c1,-20%,4%
C[C@@H]1CN[C@@H](CCO)/C1=C\c1ccccc1,1.4%,10%
COC(=O)[C@]1(C)N[C@H](CN(C)S(=O)(=O)c2ccccc2)[C@@H]2C(=O)N(Cc3ccccc3)C(=O)[C@@H]21,0.9%,9%
COc1ccc(N[C@@H]2CCN3C(=O)c4ccccc4[C@@H]3C[C@H]2O)cc1,-0.7%,-12%
COc1ccc(CNC(=O)C[C@H]2C[C@H](C(=O)N3CCCCC3)[C@@]3(C)c4[nH]c5cc(CCC(=O)N(C)C)ccc5c4CCN3C2=O)cc1OC,-0.8%,4%
Cc1ccc(C2/C=C\CC(NC(=O)OCC3c4ccccc4-c4ccccc43)CC(=O)N2Cc2ccccc2)cc1 (centres undefined),-1.4%,1%
C[C@H](CO)N1C[C@H](C)[C@@H](CN(C)C(=O)Nc2ccccc2)Oc2c(NS(=O)(=O)c3ccccc3)cccc2C1=O,1.5%,-7%
CC[C@]12c3[nH]c4ccccc4c3CCN1C(=O)C(CC(=O)NCCCn1ccnc1)C[C@@H]2C(=O)N1CCN(C(=O)c2ccco2)CC1 (some centres undefined),-0.5%,3%
CCOC(=O)C1=CN(CC2CCCCC2)CCC1=O,0.9%,1%
C[C@@H](N)C(=O)NC[C@H]1O[C@@H](n2cnc3c(N)ncnc32)[C@H](O)[C@@H]1O,1.9%,15%
CC(C)NC(=O)Nc1cccc2c1O[C@H](CN(C)C(=O)NC(C)C)[C@@H](C)CN([C@H](C)CO)C2=O,-1.9%,0%

# Other results follow:
SMILES,ClpP mod,gsp antagonist
CC(C)(C)NC(=O)CC1C[C@H](C(=O)N2CCCCC2)[C@@]2(CCc3ccccc3)c3[nH]c4ccccc4c3CCN2C1=O (some centres undefined),1.6%,6%
C[C@]12c3[nH]c4ccccc4c3CCN1C(=O)C(CC(=O)NCCN1CCOCC1)C[C@@H]2C(=O)N1CCOCC1 (some centres undefined),-3.1%,9%
Cc1noc(C)c1S(=O)(=O)N(C)C[C@H]1Oc2c(NS(=O)(=O)c3cn(C)cn3)cccc2C(=O)N([C@H](C)CO)C[C@@H]1C,-7.2%,7%
C[C@H]1CN(S(=O)C(C)(C)C)[C@H](CCO)/C1=C\CCO (some centres undefined),0.2%,15%
O=C(Cc1ccc(NC(=O)C2CCN(C(=O)C3CCC3)CC2)cc1)Nc1cccc(C(=O)N2CCCCC2)c1,-1.3%,9%
CC(C)(C)S(=O)(=O)N1C[C@@H]2CC/C=C\C/C(c3ccccc3)=C\2[C@H]1CCO,1.8%,-5%
CC(C)N(C(=O)[C@H]1C[C@H](CC(=O)NCc2cccc(C(F)(F)F)c2)C(=O)N2CCc3c([nH]c4ccc(Cl)cc34)[C@]12C)C(C)C,2.1%,?
C[C@H](CO)N1C[C@H](C)[C@@H](CN(C)S(=O)(=O)c2ccccc2)Oc2ccc(NC(=O)C3CC3)cc2C1=O,-0.4%,-1%
Cc1noc(C)c1NC(=O)Nc1cccc2c1O[C@H](CN(C)S(=O)(=O)c1cccs1)[C@@H](C)CN([C@H](C)CO)C2=O,-0.4%,1%
CCNC(=O)N(CC)C[C@H]1N[C@@](Cc2ccccc2)(C(=O)OC)[C@H]2C(=O)N(Cc3ccccc3)C(=O)[C@@H]12,1.5%,2%
CC(C)CN1CC(COCc2ccccc2)Oc2ccccc2S1(=O)=O (centres undefined),0.7%,-17%
Cc1ccc(CNCCCn2cnc(C(=O)Nc3ccc(C)c(C)c3)n2)o1,-0.8%,-4%
Cc1ccc(S(=O)(=O)N(C)C[C@@H]2Oc3c(NC(=O)C4CC4)cccc3C(=O)N([C@@H](C)CO)C[C@@H]2C)cc1,0.4%,-26%
C[C@H](CO)N1C[C@H](C)[C@@H](CN(C)C(=O)NC2CCCCC2)Oc2ccc(NC(=O)Cc3ccccc3)cc2C1=O,0.7%,-2%
F[B-](F)(F)COc1ccccc1,-0.3%,6%
C[C@H](CO)N1C[C@H](C)[C@@H](CN(C)C(=O)Nc2ccc3c(c2)OCO3)Oc2c(NC(=O)Nc3ccccc3)cccc2C1=O,-2.4%,-21%
Cc1ccc(CC(NC(=O)c2ccc(C)cc2)C(=O)O)cc1 (centres undefined),-3.0%,-3%
Cn1cncc1C#Cc1c(-c2ccc(S(C)(=O)=O)cc2)sc2ccccc12,5.3%,-10%
COc1ccc(-c2noc(CCC(=O)N3CCN(c4cccc(OC)c4)CC3)n2)cc1,2.1%,45µM*
CCOC(=O)C1=CN(Cc2ccco2)S(=O)(=O)NC1c1ccc(F)c(Cl)c1 (centres undefined),0.7%,-8%
CC(C)(C)OC(=O)N1CCCC(C(=O)Nc2cccc(C(=O)NC3CC3)c2)C1 (centres undefined),-1.2%,1%
Cc1ccc(S(=O)(=O)NCCCNS(=O)(=O)c2ccccc2Br)cc1,0.7%,3%
COc1ccc(-c2noc(CCC(=O)N3CCN(c4ccccc4)CC3)n2)cc1,0.1%,1%
C=C(CCO)C1=CCN(S(=O)(=O)C(C)(C)C)[C@@H]1CCO,-0.1%,12%
COc1ccc2c(-c3ccc(OCCN4CCOCC4)cc3)c(-c3ccccc3OC)sc2c1,5.1%,-1%
CC[C@]12c3[nH]c4cc(CCC(=O)N(C)C)ccc4c3CCN1C(=O)[C@@H](CC(=O)NCC13CC4CC(CC(C4)C1)C3)C[C@@H]2C(=O)N1CCN(C(=O)c2ccco2)CC1,0.9%,-14%
CC(C)(C)OC(=O)C[C@@H]1C/C=C\C[C@@H](CC(=O)N(CCO)Cc2ccccc2)C(=O)N2CCC[C@H]2COC1=O,-0.4%,4%
COc1ccc(C(=O)N(c2ccccc2)c2nccc3ccccc23)cc1OC,-1.0%,1%

# Part of the list above, reformatted:
SMILES	ClpP mod	gsp antagonist
CC(C)(C)NC(=O)CC1C[C@H](C(=O)N2CCCCC2)[C@@]2(CCc3ccccc3)c3[nH]c4ccccc4c3CCN2C1=O (some centres undefined)	1.6%	6%
C[C@]12c3[nH]c4ccccc4c3CCN1C(=O)C(CC(=O)NCCN1CCOCC1)C[C@@H]2C(=O)N1CCOCC1 (some centres undefined)	-3.1%	9%

# An excerpt of these results, as labelled records:
> Cn1cncc1C#Cc1c(-c2ccc(S(C)(=O)=O)cc2)sc2ccccc12
  ClpP mod: 5.3%
  gsp antagonist: -10%

> COc1ccc(-c2noc(CCC(=O)N3CCN(c4cccc(OC)c4)CC3)n2)cc1
  ClpP mod: 2.1%
  gsp antagonist: 45µM*

> CCOC(=O)C1=CN(Cc2ccco2)S(=O)(=O)NC1c1ccc(F)c(Cl)c1 (centres undefined)
  ClpP mod: 0.7%
  gsp antagonist: -8%

> CC(C)(C)OC(=O)N1CCCC(C(=O)Nc2cccc(C(=O)NC3CC3)c2)C1 (centres undefined)
  ClpP mod: -1.2%
  gsp antagonist: 1%
